# eIF4H FP inh – inhibitors of RNA binding by human eIF4H | eIF4H fluorescence polarization binding assay | inhibition, % at 35 µM | 0.94% of 290,000 active | AID 2012;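 active = 50% or more with normal probe brightness, or confirmed in later tests; inconclusive = above 50% with abnormal brightness, or retests that disagree; inactive = below 50% or failed in later tests; about a fifth of its hits are not listed in these tables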;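 also: calls also rest on retests at 20 µM and on dose response follow-up; 0% = protein and probe with vehicle and 100% = probe without protein; strong numbers were not always called active; many hits fall short of the cut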
# PABP polyA inh – PABP-poly(A) binding inhibition. P11940. PABP-poly(A) RNA binding, fluorescence polarization. inhibition, % at 35 µM. 1% of 290,000 active. AID 2014;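 active = 50% or more with normal probe brightness, or confirmed in later tests; inconclusive = above 50% with abnormal brightness, or retests that disagree; inactive = below 50% or failed in later tests; about a fifth of its hits are not listed in these tables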;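 also: calls also rest on retests at 20 µM and on dose response follow-up; controls were probe without protein and protein plus probe with vehicle; some compounds called inactive have numbers as strong as hits; many hits fall short of the cut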
# Env fusion inh – blocks HIV Env-driven cell-cell fusion | HeLa-JRFL Env/CEM21 cell fusion, luciferase | inhibition, % at 12.3 µM | 1.1% of 360,000 active | AID 651610;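 active = mean replicate inhibition score of at least 50 and every replicate individually at or above 50; inconclusive = only one of the two criteria met; inactive = mean below 50 and not all replicates reaching 50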;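 also: 0% = plate neutral controls and 100% = maraviroc near 300 nM; one replicate is shown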
# Rce1 inh – blocks yeast Ras-converting enzyme. Q03530. yeast membranes, quenched prenylated peptide cleavage fluorescence. calls only. 0.27% of 290,000 active. AID 2563;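 active = fall in fluorescence gain of 50% or more versus controls, with final raw signal at or below 3038400; inconclusive = same 50% fall but final raw signal above 3038400; inactive = fall in fluorescence gain under 50%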;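 also: plate controls were neutral control wells for no effect and wells lacking membranes for full effect; tested at 10 µM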
# Target sequence (Q03530 whole entry, looked up): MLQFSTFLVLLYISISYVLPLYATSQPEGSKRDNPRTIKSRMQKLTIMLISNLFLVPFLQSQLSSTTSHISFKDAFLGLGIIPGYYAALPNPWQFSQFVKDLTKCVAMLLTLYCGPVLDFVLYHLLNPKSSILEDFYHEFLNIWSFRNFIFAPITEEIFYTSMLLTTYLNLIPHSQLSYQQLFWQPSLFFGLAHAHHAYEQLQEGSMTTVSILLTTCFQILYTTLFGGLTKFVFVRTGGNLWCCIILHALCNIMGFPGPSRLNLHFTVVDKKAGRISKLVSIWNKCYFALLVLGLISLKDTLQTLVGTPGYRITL
# CSC inhib – cancer stem cell inhibition | 1.1% of 300,000 active | inhibition, % at 7.5 µM | cancer stem cell-like cells viability, luminescence;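 active = mean at 75% or more and at least half the replicates too; inconclusive = mean and replicates disagree; tested in HMLE shEcad cells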;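 also: 0% = median of negative and 100% = median of positive control wells; the first replicate is given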
# UUG fidelity – yeast start codon fidelity modulation; S. cerevisiae UUG-firefly luciferase reporter, luminescence/redox ratio; activity score, % at 18.7 µM; 0.13% of 350,000 active;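 active = replicate mean at a twofold rise or more, about +100% in these data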;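 also: firefly luciferase made from a UUG start codon reports start codon fidelity; reporter light over untreated wells divided by growth signal over untreated wells; some hits fall short of that in this replicate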
# MT1-MMP act inh – MT1-MMP (human) activation inhibition. AID 651647. 0.061% of 360,000 active. GFP/RFP ratio change, % at 20 µM. HT1080 RFP-PRO-GFP cells, GFP/RFP ratio fluorescence, overnight; percent of plate control window, DMSO zero;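 active = GFP/RFP ratio change of at least 30% with cell ATP level not reduced by more than half and red fluorescence within 50% of control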; also: strong numbers were not always called active
#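 Assay system: HT1080 RFP-PRO-GFP cells | Dosing: 20 µM single dose, 1% DMSO | Incubation: Cells overnight before dosing, compound overnight, 37 °C, 5% CO2 | Evaluation: GFP/RFP fluorescence ratio | Control set: DMSO-only wells and HT1080 RFP-L50D-GFP cell wells as references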
# eIF4H FP inh retest – recorded beside eIF4H FP inh, whose call it bears; inhibition, %; compound at 20 µM; confirmation average;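 mean of two retest wells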
# PABP polyA inh retest – recorded beside PABP polyA inh, whose call it bears; inhibition, %; compound at 20 µM; confirmation repeats;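 mean of two retest wells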
# MT1-MMP act inh RFP – also measured in MT1-MMP act inh; calls as there; RFP signal change, %; measured here: RFP expression control read;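 0 = vehicle wells; hits needed this value within 50% of zero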
# * = called active by the depositor; i = inactive; ? = inconclusive; . = no result given. Not all compounds are listed, so the mix of outcomes need not match the whole.
SMILES,eIF4H FP inh,PABP polyA inh,Env fusion inh,Rce1 inh,CSC inhib,UUG fidelity,MT1-MMP act inh,MT1-MMP act inh RFP,others
C=C1CCN([C@@H](Cc2ccccc2)C(=O)Nc2ccc(OC)cc2)S(=O)(=O)c2ccccc21,.,.,105*,i,.,-2,-4,-4,
COc1cc(-c2nc(CN3CCCN(C(=O)c4ccco4)CC3)c(C)o2)ccc1F,3,-1,12,i,-17,-11,2,1,
COc1ccc(OC)c(C2/C(=C(\O)c3ccc4c(c3)OCCO4)C(=O)C(=O)N2CC2CCCO2)c1 (centres undefined),0,7,-8,i,-2,-11,-2,5,
COc1ccc(NC(=O)CSc2ccc3c(c2)OCCO3)cc1OC,7,-1,.,i,-10,-11,1,-4,
O=C(NCc1cccs1)c1ccc2sc(C3=C[C@@H](O)[C@@H](O)[C@@H](CO)O3)nc2c1,.,.,-11,.,.,-12,-4,7,
COc1cccc(-c2cc(C(=O)Nc3c(C)nn(Cc4ccccc4C)c3C)no2)c1,2,-1,24,i,-3,6,-1,-8,
CCOC(=O)c1c(NC(=O)C2C3CCC(O3)C2C(=O)O)sc(C)c1-c1ccc(C)cc1 (centres undefined),-7,-9,.,i,-2,.,-1,1,
O=C(CSc1ncnc2sccc12)Nc1ccccc1,-8,1,-9,i,-2,.,-7,-4,
COc1ccc(N2CCN(c3c(S(=O)(=O)c4ccccc4)cnc4ccc(OC)cc34)CC2)cc1,12,-2,37,i,27,.,-6,-13,
O=C(/C=C/c1cccc(Cl)c1)NNC(=O)c1ccncc1,.,.,7,.,15,-19,-5,-2,
CCc1nc2c(OCC(=O)c3ccc(F)cc3)cccn2c1N(C)C(=O)c1cccs1,.,.,-4,.,.,1,0,7,
Cn1c(=O)n(Cc2ccccc2)c(=O)c2c1nc1n2CCCN1CCc1ccccc1,-9,4,.,i,-5,5,17,-12,
Cc1ccc(-n2c(C)cc(/C=N/NC(=O)c3ccncc3)c2C)c(C)c1,7,13,14,i,6,-8,-3,-5,
COc1ccc(-c2cc([C@H]3[C@H]4C=CC[C@@H](C)[C@@H]4C(=O)N3Cc3ccccc3)ccc2F)cc1OC,-9,3,21,i,-1,-18,-9,-9,
O=C(COc1ccccc1)N(CCc1ccccc1)c1nc(-c2ccc(F)cc2)cs1,-3,-6,-7,i,0,-6,-4,-2,
COc1ccc(NC(=S)NC(=O)C2CCC2)cc1,-8,-3,-19,.,7,-20,-1,2,
CC1(C)CC=C(NNC(=O)c2cccnc2)C(=O)C1,18,6,1,i,-14,-23,-3,2,
CN1CCN(NC(=O)c2cn(-c3ccccc3)nc2-c2ccc(OC(F)F)cc2)CC1,-8,?,-10,i,-5,.,-1,1,
CC(NC(=O)C1CCC(C(=O)NC(C)c2ccccc2)CC1)c1ccccc1 (centres undefined),-10,-3,4,i,110*,-8,10,-8,
CC(=O)OC(C)(C)C1Cc2cc3ccc(=O)oc3cc2O1 (centres undefined),-2,44,5,?,-1,-5,3,1,
CC(C)(C)OC(=O)NNC(=S)NCc1ccc(Cl)cc1,3,2,.,i,0,-33,4,3,
O=C(N/N=C/c1ccncc1)c1cccc([N+](=O)[O-])c1,-5,-15,-7,i,-5,.,.,.,
Cc1ccc(CNS(=O)(=O)c2ccc(C(C)(C)C)cc2)n1C,15,18,-66,i,3,-8,-4,2,
CC1(C)CCC(=O)c2ccccc21,.,.,35,.,.,-6,-4,4,
CS(=O)(=O)c1ccc(Cl)c(NC(=O)COC(=O)c2ncc(Cl)c(Cl)c2Cl)c1,.,.,9,i,5,-25,4,6,
SMILES,eIF4H FP inh,PABP polyA inh,Env fusion inh,Rce1 inh,CSC inhib,UUG fidelity,MT1-MMP act inh,MT1-MMP act inh RFP,others
C=CCn1c(SCc2nc3ccccc3[nH]2)nnc1-c1cccc(OC)c1,-2,-3,.,i,-1,-18,-10,-9,
CC1=C(C(=O)N(C)C)CC(CC(=O)NCC2CCCCC2)C(=O)N1CCCN1CCCC1=O (centres undefined),.,.,-77,.,.,-6,-3,0,
CCN(Cc1ccncc1)C(=O)C1CCC(=O)N(Cc2ccc(Cl)cc2)C1 (centres undefined),27,14,7,i,-7,10,-3,2,
Cc1c(O)ccc2c3c(c(=O)oc12)CCC(C)C3 (centres undefined),7,6,.,i,20,-13,-8,-6,
C=CCN(C(=O)CCC(=O)O)C1CC(=O)N(c2ccc(OCCC)cc2)C1=O (centres undefined),-8,-3,.,i,5,-1,4,2,
Cn1c(=O)[nH]c(=O)c2c1nc(Br)n2Cc1ccccc1Cl,-7,-5,.,i,3,-24,4,0,
Cc1[nH]c(=O)[nH]c(=O)c1S(=O)(=O)N1CCCC(C(=O)NCc2ccc3c(c2)OCO3)C1 (centres undefined),-4,-5,17,i,-12,.,2,2,
O=C(Nc1c(Cl)cc(Cl)cc1-c1nc2ccccc2s1)c1ccc(Br)o1,-3,-1,.,i,17,-18,-7,-5,
O=C(NCCSc1c(-c2ccccc2)[nH]c2ccccc12)c1cc2ccccc2oc1=O,3,1,-46,i,2,-20,7,4,
CNC(=O)c1ccc(NC(=O)C2CCN(c3ncnc4sc(C)c(C)c34)CC2)cc1,-2,13,16,i,-18,-6,-14,-10,
Cc1cc(C)c2nc(-c3ccccn3)cc(C(=O)Nc3ccc(S(=O)(=O)Nc4cc(C)on4)cc3)c2c1,56,24,1,i,14,-17,4,-4,eIF4H FP inh retest=19;PABP polyA inh retest=24
CCN(CC)CCN1C(=O)C2C(C(=O)Nc3ccc(Br)cc3)C3C=CC2(O3)C1C(=O)NC1CCCCC1 (centres undefined),-4,-5,6,.,-9,5,-2,0,
CCOc1ccc(C)cc1S(=O)(=O)n1ccnc1,-4,5,.,i,-11,-12,0,5,
C/C(CC(=O)Nc1ccc2c(c1)OCO2)=N\NC(=O)OC(C)(C)C,-3,-14,6,i,2,.,3,3,
CN1C(=O)/C(=C2\SC(=S)N(NC(=O)c3cccnc3)C2=O)c2ccccc21,15,22,16,i,-6,-6,2,1,
Cc1cccc2sc(NC(=O)c3cccc(S(=O)(=O)N4CCc5ccccc54)c3)nc12,52,5,25,i,-1,.,-16,-20,eIF4H FP inh retest=-10;PABP polyA inh retest=3
Cc1c(C=O)c2ccccc2n1CC(=O)NCc1ccccc1,-6,-7,21,i,.,.,-3,-4,
CCOC(=O)Cc1csc(NC(=O)c2cc(=O)c3ccccc3o2)n1,4,1,-9,i,3,.,5,-4,
COc1ccc(C(=O)N/N=C/c2ccc(OC(=O)c3ccccc3)cc2)cc1,-2,-2,-13,i,12,-15,2,1,
COc1ccc(/C=C2\CCCC3C2=NC(=S)NC3c2ccc(OC)cc2)cc1 (centres undefined),?,-4,1,i,-3,.,2,3,
Cc1cn([C@H]2C[C@H](O)[C@@H](CCC(=O)NCCCn3ccnc3)O2)c(=O)[nH]c1=O,.,.,-3,.,.,-24,4,7,
COc1ccc(-c2cc(-c3ccc(OC)c(OC)c3)n[nH]2)c(O)c1,5,-4,-279,i,0,-14,7,-3,
CC1CCC(NC(=O)N(CCCl)N=O)CC1 (centres undefined),.,.,-24,i,-12,-34,1,2,
O=C(NCCC1=CCCCC1)C1CCN(S(=O)(=O)N2CCOCC2)CC1,7,4,.,i,1,.,-2,-5,
COc1cccc(C2SCC(=O)N2c2ccc(C)cc2)c1OC (centres undefined),-7,1,.,i,3,2,-7,-2,
SMILES,eIF4H FP inh,PABP polyA inh,Env fusion inh,Rce1 inh,CSC inhib,UUG fidelity,MT1-MMP act inh,MT1-MMP act inh RFP,others
Cc1ccc(N2CCN(C(=O)c3ccccc3NC(=O)C3CC=CCC3C(=O)O)CC2)cc1 (centres undefined),72,-5,.,i,-9,-2,-5,7,eIF4H FP inh retest=-8;PABP polyA inh retest=4
COC(=O)CSc1nc(N)c(C#N)c(-c2ccc(O)cc2)c1C#N,-6,2,10,i,-2,-19,-4,-4,
CCN(CC)CCn1c2ccccc2c2cnc(N)c(C#N)c21,14,-4,.,i,-1,.,-6,-1,
Cc1ccc(S(=O)(=O)N2CCOCC2)cc1NC(=O)COC(=O)c1cccnc1Cl,-9,4,3,i,-15,.,0,1,
COc1ccc(N2CCN(S(=O)(=O)CCNC(=O)C3CC3)CC2)cc1,.,.,-9,i,7,.,-1,1,
Cc1cccc(C)c1NC1=NC2(CCCCC2)N=C(N)N1,-7,6,-22,i,-8,-15,-1,-5,
CSCC[C@H](NC(=O)OC(C)(C)C)C(=O)NCC1CCC(C(=O)O)CC1 (some centres undefined),-6,5,-36,i,-16,-18,9,15,
COc1ccc(CCC(=O)NNC(=S)Nc2cccc(C(C)=O)c2)cc1,6,-9,-17,i,12,.,4,2,
Cc1cc(C)cc(OCC(=O)OCCN2C(=O)c3ccccc3C2=O)c1,-9,-7,.,i,-10,11,1,-1,
COc1ccc(C(=O)Nc2ccnc(-c3cccnc3)n2)cc1,0,-10,-6,i,0,.,2,2,
COC(=O)Cc1cc(=O)n(-c2ccccc2)[nH]1,-5,-3,.,i,6,.,-51,7,
CCOc1ccc(C(=O)n2cc(C(=O)OC)c3ccccc32)cc1,7,4,-18,i,32,-8,-1,-3,
CCOC(=O)c1[nH]cnc1C(=O)Nc1cccc(Cl)c1,-9,-7,1,i,-3,.,0,3,
CCCN(CCC)S(=O)(=O)c1ccc(C(=O)N2CCN(C)CC2)cc1,-3,-7,?,i,-3,-17,-2,4,
COc1ccc(C(=O)NCC(=O)OCC(=O)c2ccc3c(c2)NC(=O)CO3)cc1,-4,-2,4,i,-11,.,0,4,

# In the list so far, these contain a Cl atom:
SMILES,eIF4H FP inh,PABP polyA inh,Env fusion inh,Rce1 inh,CSC inhib,UUG fidelity,MT1-MMP act inh,MT1-MMP act inh RFP,others
O=C(/C=C/c1cccc(Cl)c1)NNC(=O)c1ccncc1,.,.,7,.,15,-19,-5,-2,
CC(C)(C)OC(=O)NNC(=S)NCc1ccc(Cl)cc1,3,2,.,i,0,-33,4,3,
CS(=O)(=O)c1ccc(Cl)c(NC(=O)COC(=O)c2ncc(Cl)c(Cl)c2Cl)c1,.,.,9,i,5,-25,4,6,
CCN(Cc1ccncc1)C(=O)C1CCC(=O)N(Cc2ccc(Cl)cc2)C1 (centres undefined),27,14,7,i,-7,10,-3,2,
Cn1c(=O)[nH]c(=O)c2c1nc(Br)n2Cc1ccccc1Cl,-7,-5,.,i,3,-24,4,0,
O=C(Nc1c(Cl)cc(Cl)cc1-c1nc2ccccc2s1)c1ccc(Br)o1,-3,-1,.,i,17,-18,-7,-5,
CC1CCC(NC(=O)N(CCCl)N=O)CC1 (centres undefined),.,.,-24,i,-12,-34,1,2,
Cc1ccc(S(=O)(=O)N2CCOCC2)cc1NC(=O)COC(=O)c1cccnc1Cl,-9,4,3,i,-15,.,0,1,
CCOC(=O)c1[nH]cnc1C(=O)Nc1cccc(Cl)c1,-9,-7,1,i,-3,.,0,3,

# Bioassay records as filed in PubChem.
